Mtb MenB inh: M. tuberculosis MenB inhibitors, primary screen, biochemical, absorbance; 1,4-dihydroxy-2-naphthoyl-CoA synthase (Mycobacterium tuberculosis (strain ATCC 25618 / …; MenB enzyme assay, absorbance read-out; some hits fall short of the stated cut; inhibition, %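 (about 12 µg/mL by stock and volumes)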; 100,000 compounds, 0.43% hits; AID 540299, 2011;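 active = mean of two replicates above 30%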;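 note: 0% = no compound and 100% = wells with inactive enzyme; the first replicate is given; strong numbers were not always called active; inactives centre near -10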
Target sequence (P9WNP5 whole entry, looked up): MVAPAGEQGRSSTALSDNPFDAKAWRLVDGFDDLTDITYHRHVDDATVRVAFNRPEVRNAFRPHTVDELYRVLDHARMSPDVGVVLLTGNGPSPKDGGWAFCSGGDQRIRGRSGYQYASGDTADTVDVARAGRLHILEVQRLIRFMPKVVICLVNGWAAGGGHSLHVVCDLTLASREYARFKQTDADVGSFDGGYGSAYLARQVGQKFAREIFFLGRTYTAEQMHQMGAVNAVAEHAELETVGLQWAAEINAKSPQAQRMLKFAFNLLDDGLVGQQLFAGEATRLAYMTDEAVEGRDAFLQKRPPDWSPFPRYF
Polio RdRp inh: poliovirus RdRp elongation inhibitors, primary screen, biochemical, fluorescence polarization, total intensity | poliovirus polymerase elongation; stronger effect = lower value | % elongation, % (compound at 16.7 µg/mL) | 150,000 compounds, 0.66% hits | AID 588519, 2011 | Genome polyprotein (Poliovirus type 1 (strain Mahoney)), P03300; in the data active = % elongation below about 90%; note: some results filed as inactive read as strong as hits
MbtI inh: MbtI salicylate synthase inhibitors, primary screen, biochemical, fluorescence intensity. P9WFX0. purified MbtI enzyme, fluorescence intensity read-out. inhibition, %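 (about 17 µg/mL by stock and volumes)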. 100,000 compounds, 0.89% hits. AID 493033, 2011;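 active = above 50% in both replicates, above 80% if mildly self-fluorescent; inactive = the rest, strongly fluorescent compounds included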;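 note: 0% = mean of negative and 100% = mean of positive controls; one replicate is shown; some compounds called inactive have numbers as strong as hits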
Target sequence (P9WFX0 whole entry, looked up): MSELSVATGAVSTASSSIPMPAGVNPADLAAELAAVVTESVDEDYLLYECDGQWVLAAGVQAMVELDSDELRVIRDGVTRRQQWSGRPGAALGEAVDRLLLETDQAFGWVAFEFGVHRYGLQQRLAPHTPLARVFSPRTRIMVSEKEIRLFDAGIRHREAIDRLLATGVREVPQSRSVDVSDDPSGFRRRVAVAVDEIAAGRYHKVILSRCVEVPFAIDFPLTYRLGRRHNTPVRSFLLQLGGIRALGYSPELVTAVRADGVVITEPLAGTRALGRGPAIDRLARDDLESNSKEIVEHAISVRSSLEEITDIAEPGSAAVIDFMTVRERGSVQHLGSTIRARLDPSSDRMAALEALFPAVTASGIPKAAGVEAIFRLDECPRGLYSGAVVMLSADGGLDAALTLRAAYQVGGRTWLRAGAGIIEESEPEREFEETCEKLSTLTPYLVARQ
Polio RdRp inh intensity: further read-out of Polio RdRp inh, marked with its call; % elongation; measured here: total intensity read-out; formula for this scale not given here;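 total fluorescence in place of polarization; lower means less elongation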
Active calls of the source: *.

For CN1CC(c2ccccc2)OC1=O (stereo not drawn) the results were Mtb MenB inh -48, Polio RdRp inh 104, MbtI inh -14 and Polio RdRp inh intensity 103.
Screening CCN(CC)C(=O)c1sc(NC(=S)N(C)Cc2cn(CC)nc2C)c(C(=O)OC)c1C returned Mtb MenB inh -10, Polio RdRp inh 100, MbtI inh 11 and Polio RdRp inh intensity 100.
For Cc1ccc(C)c(-c2nnc(NC(=O)/C=C/c3cccs3)o2)c1 the results were Mtb MenB inh -21, Polio RdRp inh 99, MbtI inh -7 and Polio RdRp inh intensity 104.
`CN(C)c1ccc(C(=O)c2ccccc2)cc1` gave Mtb MenB inh -95, Polio RdRp inh 100, MbtI inh 2 and Polio RdRp inh intensity 102.
Screening CCOC(=O)C(Cc1ccc(O)cc1)NC(C)=O (stereo not drawn) returned Mtb MenB inh 8, Polio RdRp inh 99, MbtI inh -10 and Polio RdRp inh intensity 102.
Screening C/C(CCc1ccc2c(c1)OCO2)=N\NC=O returned Mtb MenB inh 4, Polio RdRp inh 100, MbtI inh -13 and Polio RdRp inh intensity 102.
CCCCn1c(SCC(=O)c2ccc3c(c2)NC(=O)CO3)nc2cc(S(N)(=O)=O)ccc21 was read as Mtb MenB inh -7, Polio RdRp inh 104, MbtI inh 0 and Polio RdRp inh intensity 109.
`CC(=O)Nc1ccc(NC(=O)CNC2CCC(C)CC2)cc1` (stereo not drawn) gave Mtb MenB inh 12, Polio RdRp inh 99, MbtI inh -1 and Polio RdRp inh intensity 102.
`CC(O)CCc1nc2ccc(C(=O)O)cc2[nH]1` (stereo not drawn) gave Mtb MenB inh 6, Polio RdRp inh 103, MbtI inh 42 and Polio RdRp inh intensity 104.
Screening Cc1noc2ncn(CC(=O)NCCc3ccccc3)c(=O)c12 returned Mtb MenB inh -15, Polio RdRp inh 101, MbtI inh 2 and Polio RdRp inh intensity 101.
For OC1CCN(C(=S)NC2CCCC2)CC1 the results were Mtb MenB inh -28, Polio RdRp inh 102, MbtI inh -14 and Polio RdRp inh intensity 103.
Screening CC(=O)O[C@H]1C(=O)[C@@]2(C)[C@H](O)C[C@@H]3OC[C@]3(OC(C)=O)[C@@H]2[C@@H](OC(=O)c2ccccc2)[C@@]2(O)C[C@@H](OC(=O)[C@@H](O)[C@H](NC(=O)c3ccccc3)c3ccccc3)C(C)=C1C2(C)C returned Mtb MenB inh -3, Polio RdRp inh 101, MbtI inh -3 and Polio RdRp inh intensity 101.
`Cc1[nH]c(=S)n(C2CCCCC2)c1C` gave Mtb MenB inh -16, Polio RdRp inh 101, MbtI inh 35 and Polio RdRp inh intensity 105.
`COC(=O)c1c(C)oc(C)c1S(=O)(=O)N1CCCCC1` gave Mtb MenB inh -1, Polio RdRp inh 97, MbtI inh -6 and Polio RdRp inh intensity 95.
C1=C(c2ccccc2)Nc2ncnn2C1c1ccco1 (stereo not drawn) was read as Mtb MenB inh -6, Polio RdRp inh 95, MbtI inh 96 and Polio RdRp inh intensity 116.
For COc1cccc(-c2noc(-c3ccccc3C)n2)c1 the results were Mtb MenB inh -19, Polio RdRp inh 104, MbtI inh -24 and Polio RdRp inh intensity 103.
Screening Cn1c(=O)c(=O)n(C)c2cc(S(=O)(=O)CCC(=O)N3CCCCC3)ccc21 returned Mtb MenB inh 7, Polio RdRp inh 102, MbtI inh 2 and Polio RdRp inh intensity 104.
O=C1c2ccccc2C(=O)N1CC(=O)n1nc(-c2cccnc2)nc1NCc1cccs1 was read as Mtb MenB inh -14, Polio RdRp inh 102, MbtI inh -5 and Polio RdRp inh intensity 101.
COC(=O)C1=C(O)c2ccccc2S(=O)(=O)N1C was read as Mtb MenB inh -13, Polio RdRp inh 101 and Polio RdRp inh intensity 106.
Screening Oc1ccc(C=NCC2COc3ccccc3O2)cc1 (stereo not drawn) returned Mtb MenB inh -7, Polio RdRp inh 102, MbtI inh 8 and Polio RdRp inh intensity 103.
`O=C(Nc1ccc(S(=O)(=O)Nc2nccs2)cc1)C1CCCO1` (stereo not drawn) gave Mtb MenB inh -12, Polio RdRp inh 108 and Polio RdRp inh intensity 108.
Cn1c(=O)c2cn(C(C)(C)C)cc2n(C)c1=O was read as Mtb MenB inh -3, Polio RdRp inh 100, MbtI inh 2 and Polio RdRp inh intensity 101.
For O=S(=O)([N-]c1nc2ccccc2nc1-[n+]1ccccc1)c1ccccc1 the results were Mtb MenB inh -26, Polio RdRp inh 103 and Polio RdRp inh intensity 105.
O=C(CSc1ccc(-c2ccco2)nn1)N1CCCC1 was read as Mtb MenB inh -11, Polio RdRp inh 102, MbtI inh 8 and Polio RdRp inh intensity 105.
For Cc1[nH]c2ccccc2c1/C=N/NC(=O)Cc1nc2sc(C)c(C)c2c(=O)[nH]1 the results were Mtb MenB inh -36, Polio RdRp inh 138, MbtI inh -4 and Polio RdRp inh intensity 161.
For O=C(C1CCCN(S(=O)(=O)c2ccc(Cl)cc2)C1)N1CCCC1 (stereo not drawn) the results were Mtb MenB inh 19, Polio RdRp inh 100, MbtI inh -8 and Polio RdRp inh intensity 102.
For Cc1ccc(C(=O)NCc2ccco2)o1 the results were Mtb MenB inh -3, Polio RdRp inh 101, MbtI inh -2 and Polio RdRp inh intensity 108.
For O=C1NC2CCCCC2NC1CC(=O)N1CCN(Cc2ccccc2)CC1 (stereo not drawn) the results were Mtb MenB inh 17, Polio RdRp inh 100, MbtI inh -5 and Polio RdRp inh intensity 110.
COc1ccc2nc(C)cc(NCCN3CCOCC3)c2c1 was read as Mtb MenB inh -23, Polio RdRp inh 91, MbtI inh 46 and Polio RdRp inh intensity 102.
CC(=O)c1sc2ccccc2c1O was read as Mtb MenB inh -145, Polio RdRp inh 105, MbtI inh 14 and Polio RdRp inh intensity 106.

4 compounds picked at random from those above:
Screening Oc1ccc(C=NCC2COc3ccccc3O2)cc1 (stereo not drawn) returned Mtb MenB inh -7, Polio RdRp inh 102, MbtI inh 8 and Polio RdRp inh intensity 103.
Screening Cn1c(=O)c(=O)n(C)c2cc(S(=O)(=O)CCC(=O)N3CCCCC3)ccc21 returned Mtb MenB inh 7, Polio RdRp inh 102, MbtI inh 2 and Polio RdRp inh intensity 104.
O=C1c2ccccc2C(=O)N1CC(=O)n1nc(-c2cccnc2)nc1NCc1cccs1 was read as Mtb MenB inh -14, Polio RdRp inh 102, MbtI inh -5 and Polio RdRp inh intensity 101.
`O=C(Nc1ccc(S(=O)(=O)Nc2nccs2)cc1)C1CCCO1` (stereo not drawn) gave Mtb MenB inh -12, Polio RdRp inh 108 and Polio RdRp inh intensity 108.

(list continues)
For Cc1ccc(S(=O)(=O)N(CC(=O)N2CCC(C)CC2)C(=O)N2CCN(C)CC2)cc1 the results were Mtb MenB inh 8, Polio RdRp inh 101, MbtI inh -4 and Polio RdRp inh intensity 107.
Screening O=C(Nc1cccc(C(=O)NCCN2CCCC2)c1)C1=CSCCO1 returned Mtb MenB inh -26, Polio RdRp inh 100, MbtI inh -19 and Polio RdRp inh intensity 103.
`CCCN1C(=O)/C(=C/c2cc(C)n(-c3ccc(Cl)cc3)c2C)NC1=S` gave Mtb MenB inh -31, Polio RdRp inh 101, MbtI inh -3 and Polio RdRp inh intensity 99.
Screening CC(C)(C)NS(=O)(=O)c1ccc2oc3ccc(S(=O)(=O)NC(C)(C)C)cc3c2c1 returned Mtb MenB inh -41, Polio RdRp inh 100, MbtI inh -2 and Polio RdRp inh intensity 104.
O=S(=O)(c1ccc(=S)[nH]c1)N1CCCCCC1 was read as Mtb MenB inh -8, Polio RdRp inh 106, MbtI inh 95* and Polio RdRp inh intensity 102.
For Cc1cccc(C)c1N1C(=O)CSCC1=O the results were Mtb MenB inh -20, Polio RdRp inh 105, MbtI inh -14 and Polio RdRp inh intensity 104.
CN1C(=O)SC(Nc2ccccc2)C1=O (stereo not drawn) was read as Mtb MenB inh -3, Polio RdRp inh 99, MbtI inh 10 and Polio RdRp inh intensity 103.
`COc1cccc2c(C)cc(N3CCCCC3)nc12` gave Mtb MenB inh -5, Polio RdRp inh 98, MbtI inh -344 and Polio RdRp inh intensity 104.
Screening c1cncc(CNc2ccc(-c3nc4ncccc4o3)cc2)c1 returned Mtb MenB inh -5, Polio RdRp inh 99, MbtI inh 90 and Polio RdRp inh intensity 100.
`CN1CCN(NC(NC(=O)c2cccnc2)(C(F)(F)F)C(F)(F)F)CC1` gave Mtb MenB inh -5, Polio RdRp inh 101, MbtI inh -7 and Polio RdRp inh intensity 95.
Screening CCn1c(SCc2c(C)noc2C)nc2cc(S(=O)(=O)N3CCOCC3)ccc21 returned Mtb MenB inh -27, Polio RdRp inh 99, MbtI inh 18 and Polio RdRp inh intensity 103.
For CC(=O)Oc1ccccc1C(=O)Nc1ccc(C(N)=O)cc1 the results were Mtb MenB inh 1, Polio RdRp inh 102 and Polio RdRp inh intensity 111.
For O=C(CN1C(=O)CCCc2ccccc21)N1CCCCC1 the results were Mtb MenB inh 4, Polio RdRp inh 102, MbtI inh -14 and Polio RdRp inh intensity 103.
Nc1cnn(C2CCCCC2)c(=O)c1Cl was read as Mtb MenB inh -23, Polio RdRp inh 102, MbtI inh -10 and Polio RdRp inh intensity 104.
For NS(=O)(=O)c1ccc2nc(NC(=O)c3ccc(Br)s3)sc2c1 the results were Mtb MenB inh -11, Polio RdRp inh 103, MbtI inh 7 and Polio RdRp inh intensity 103.
For COc1ccc(NC(=O)Nc2ccc(OC)c(OC)c2)cc1OC the results were Mtb MenB inh -26, Polio RdRp inh 100 and Polio RdRp inh intensity 109.
For COC(=O)c1cc(S(=O)(=O)N(C)C2CCCCC2)oc1C the results were Mtb MenB inh 12, Polio RdRp inh 107, MbtI inh -2 and Polio RdRp inh intensity 109.
O=C(O)C1CC=CCC1C(=O)NCCc1ccccc1 (stereo not drawn) was read as Mtb MenB inh 36*, Polio RdRp inh 101, MbtI inh -2 and Polio RdRp inh intensity 101.
Screening NNC(=O)C(Oc1ccccc1)Oc1ccccc1 returned Mtb MenB inh -34, Polio RdRp inh 103, MbtI inh -14 and Polio RdRp inh intensity 105.
Screening O=C(c1ccccc1)C1(c2ccccc2)OCCCCO1 returned Mtb MenB inh -1, Polio RdRp inh 101 and Polio RdRp inh intensity 98.
For FC(F)(F)c1ccc(NC(=S)NC2CC2)cc1 the results were Mtb MenB inh -12, Polio RdRp inh 95, MbtI inh -7 and Polio RdRp inh intensity 120.
CCOC(=O)N1CCN(CC2CCCCC2)CC1 was read as Mtb MenB inh -6, Polio RdRp inh 100, MbtI inh -24 and Polio RdRp inh intensity 104.
For O=C(Cc1ccccc1)Nc1ccc2c(c1)C(=O)OC2 the results were Mtb MenB inh 0, Polio RdRp inh 103 and Polio RdRp inh intensity 104.
`O=C(NCCCN1CCCCCC1)C1C2C=CC3(CN(Cc4cccs4)C(=O)C13)O2` (stereo not drawn) gave Mtb MenB inh 7, Polio RdRp inh 100, MbtI inh -3 and Polio RdRp inh intensity 102.
`O=C1c2ccccc2C(=O)N1CN(CN1C(=O)c2ccccc2C1=O)C1CC1` gave Mtb MenB inh 4, Polio RdRp inh 100, MbtI inh -7 and Polio RdRp inh intensity 101.
CCCCOc1ccc(CSC(=N)N)cc1 was read as Mtb MenB inh -12, Polio RdRp inh 101, MbtI inh -11 and Polio RdRp inh intensity 104.
Screening CCCCOc1ccc(C(=O)Nc2cc(C)ccn2)cc1 returned Mtb MenB inh -21, Polio RdRp inh 102, MbtI inh -5 and Polio RdRp inh intensity 101.
For CCN(CC)S(=O)(=O)c1ccc2oc(C(=O)NCCN3CCOCC3)c(C)c2c1 the results were Mtb MenB inh -80, Polio RdRp inh 99, MbtI inh -4 and Polio RdRp inh intensity 102.
`COc1cccc(/C=N/c2nc3ccccc3n2C)c1O` gave Mtb MenB inh -44, Polio RdRp inh 101, MbtI inh -7 and Polio RdRp inh intensity 103.
Cc1ccc(C)c(N2N=C(C(=O)OCN3C(=O)c4ccccc4C3=O)CCC2=O)c1 was read as Mtb MenB inh -25, Polio RdRp inh 103, MbtI inh 0 and Polio RdRp inh intensity 109.
CN(C(=O)CCc1nc(CN2CCN(S(=O)(=O)c3cccs3)CC2)no1)C1CCCCC1 was read as Mtb MenB inh -26, Polio RdRp inh 101, MbtI inh 0 and Polio RdRp inh intensity 101.
For COc1ccc(CN2C(=O)N(Cc3cc(=O)n4ccccc4n3)c3ccccc3S2(=O)=O)cc1 the results were Mtb MenB inh -2, Polio RdRp inh 99, MbtI inh -24 and Polio RdRp inh intensity 102.

Five entries from above, arranged by length of the SMILES, rising:
CCOC(=O)N1CCN(CC2CCCCC2)CC1 was read as Mtb MenB inh -6, Polio RdRp inh 100, MbtI inh -24 and Polio RdRp inh intensity 104.
Screening CCCCOc1ccc(C(=O)Nc2cc(C)ccn2)cc1 returned Mtb MenB inh -21, Polio RdRp inh 102, MbtI inh -5 and Polio RdRp inh intensity 101.
For COc1ccc(NC(=O)Nc2ccc(OC)c(OC)c2)cc1OC the results were Mtb MenB inh -26, Polio RdRp inh 100 and Polio RdRp inh intensity 109.
`O=C1c2ccccc2C(=O)N1CN(CN1C(=O)c2ccccc2C1=O)C1CC1` gave Mtb MenB inh 4, Polio RdRp inh 100, MbtI inh -7 and Polio RdRp inh intensity 101.
For COc1ccc(CN2C(=O)N(Cc3cc(=O)n4ccccc4n3)c3ccccc3S2(=O)=O)cc1 the results were Mtb MenB inh -2, Polio RdRp inh 99, MbtI inh -24 and Polio RdRp inh intensity 102.

Screening results deposited in PubChem BioAssay by ICCB-Longwood Screening Facility, Harvard Medical School.
